E coli growth: inhibitors of Escherichia coli growth. OD600, 23 h; stronger effect = lower value. OD600 absorbance (test concentration not listed). hit rate 0.21% among 330,000. AID 1053175;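 active = OD600 absorbance below the run mean of sample wells minus 3.6 SD, in any replicate, cut at about 0.56 in these data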;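 note: stock transfer was 300 nL into about 60 µL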
Vif TR-FRET: inhibitors of Vif binding to APOBEC3G peptide, primary screen, biochemical, TR-FRET, GST-Vif 1-94, biotin-A3G peptide, dose response retest (AID 1117319); TR-FRET GST-Vif / biotin-A3G peptide binding; higher % means a stronger effect; test concentration not given here; strong numbers were not always called active; one-dose inhibition, %; IC50 in µM for titrated hits; hit rate 0.57% among 260,000;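 active = above the screen mean plus three standard deviations and confirmed in dose response; inconclusive = results disagree or hit not tested in dose response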;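 note: Vif residues 1-94 fused to GST binding biotinylated APOBEC3G peptide 110-148; 0% = full assay without inhibitor and 100% = GST in place of GST-Vif; retest series ran down from 100 µM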
ALR H2O2 inh: inhibitors of human sulfhydryl oxidase ALR | P55789 | purified ALR, DTT oxidation, H2O2 HRP-luminol luminescence | inhibition, % (test concentration not listed) | hit rate 3.8% among 290,000 | AID 485317;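 active = mean and each replicate at 75% or more; inconclusive = only one of the two met; inactive = neither met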;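 note: stock transfer was 7.5 nL into about 7.5 µL; 0% = neutral wells and 100% = wells with inactivated enzyme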
Target sequence (P55789 whole entry, looked up): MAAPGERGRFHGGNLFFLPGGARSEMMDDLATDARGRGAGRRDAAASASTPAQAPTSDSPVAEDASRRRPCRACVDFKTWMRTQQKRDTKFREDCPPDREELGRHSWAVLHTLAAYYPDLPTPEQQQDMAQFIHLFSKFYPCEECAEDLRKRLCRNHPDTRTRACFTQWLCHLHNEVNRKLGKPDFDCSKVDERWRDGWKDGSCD
MLL AF4-AF9 inh: inhibitors of human MLL-AF4/AF9 interaction | P42568 | AlphaScreen, biotin-AF4 peptide binding to FLAG-AF9 | inhibition, % at 10 µM | hit rate 0.47% among 350,000 | AID 651704;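 active = every replicate reaching a set inhibition limit, whatever the replicate mean, cut at about 25% in these data; inconclusive = mean inhibition reaches that limit but some replicates miss it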;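 note: 0% = plate neutral control median and 100% = total signal loss; the record names both 10 and 1 µM as test concentration; the first replicate is given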
FGF22 binding: shifts melting point of recombinant human FGF22; Q9HCT0; recombinant FGF22 thermal shift, SYPRO orange fluorescence; percent of sucrose octasulfate shift, DMSO zero; calls only at 9.99 µM; hit rate 1.5% among 340,000; AID 651658;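 active = melting point raised past a set limit in the mean and every replicate; inconclusive = no clear call; three in four hits are not shown here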
Target sequence (Q9HCT0 whole entry, looked up): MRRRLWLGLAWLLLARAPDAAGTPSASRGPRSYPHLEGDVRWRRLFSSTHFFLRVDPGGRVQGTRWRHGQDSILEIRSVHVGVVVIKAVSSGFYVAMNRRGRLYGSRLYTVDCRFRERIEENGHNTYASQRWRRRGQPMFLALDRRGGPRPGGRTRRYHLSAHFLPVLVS
HNF4A DNA FP: change in binding of human HNF4 alpha to DNA. AID 1224865. P41235. activity change, % at 10 µM. hit rate 0.3% among 360,000. HNF4a-FITC DNA binding, fluorescence polarization, 1 h; in the data active = activity change above about 30%, passing the limit was not always enough;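 note: controls were the assay level and a saturating level of protein; the project sought stronger binding though the title names inhibitors; some compounds called inactive have numbers as strong as hits; positive values seem to mean higher polarization but the record does not say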
Target sequence (P41235 whole entry, looked up): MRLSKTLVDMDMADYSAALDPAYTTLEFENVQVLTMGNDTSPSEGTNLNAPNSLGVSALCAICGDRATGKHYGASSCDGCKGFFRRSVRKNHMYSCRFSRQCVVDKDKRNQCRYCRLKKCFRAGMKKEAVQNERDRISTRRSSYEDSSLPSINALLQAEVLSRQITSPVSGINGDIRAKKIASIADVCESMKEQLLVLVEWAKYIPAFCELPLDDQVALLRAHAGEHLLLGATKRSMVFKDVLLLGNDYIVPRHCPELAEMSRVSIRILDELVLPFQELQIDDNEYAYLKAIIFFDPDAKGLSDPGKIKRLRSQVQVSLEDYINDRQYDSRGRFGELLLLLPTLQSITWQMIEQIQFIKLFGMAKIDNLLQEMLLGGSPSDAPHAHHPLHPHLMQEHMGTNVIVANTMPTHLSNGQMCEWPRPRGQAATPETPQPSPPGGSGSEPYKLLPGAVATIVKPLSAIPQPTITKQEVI
rRNA inh HTS: inhibitors of bacterial rRNA selective over humanized ribosomes. E. coli WT GFP vs humanized-ribosome RFP mutants, fluorescence, 24 h; stronger effect = lower value; DMSO median 0, no signal -100. GFP signal change (wild-type ribosome), % (concentration not given with the values). hit rate 1.6% among 350,000. AID 720706;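 active = significant combined selectivity score with lowered wild-type GFP, culture density cut under 30%, mutant RFP and density less affected; inactive = any of these conditions unmet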; note: one replicate is shown; some compounds called inactive have numbers as strong as hits
rRNA inh HTS OD600: also measured in rRNA inh HTS; calls as there; OD600 change, %; measured here: OD600 growth;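 optical density of the mix in the first replicate; 0 = DMSO median and -100 = no signal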
rRNA inh HTS RFP: second read-out of rRNA inh HTS, no call of its own (marks repeat the call); RFP signal change, %; measured here: RFP humanized mutant strains;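 first replicate; 0 = DMSO median and -100 = no signal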
An asterisk follows results filed as active; i = inactive; ? = inconclusive; . = not tested or not shown.

HNF4A DNA FP,rRNA inh HTS,rRNA inh HTS RFP,ALR H2O2 inh,E coli growth,rRNA inh HTS OD600,FGF22 binding,MLL AF4-AF9 inh,Vif TR-FRET,SMILES
.,-2,-1.7,.,.,4,i,4.4,.,C[C@@H]1CN([C@H](C)CO)S(=O)(=O)c2ccc(C#CC3CCCC3)cc2O[C@@H]1CN(C)C(=O)Nc1cc(F)ccc1F
.,4,12,.,.,-18,i,-4.1,.,COc1ccc(NC(=O)Nc2ccc3c(c2)C(=O)N([C@H](C)CO)C[C@@H](C)[C@@H](CN(C)Cc2ccccc2)OCCCC[C@H](C)O3)cc1
5.4,.,.,.,0.66,.,i,-3.7,.,CC(C)N1C(=O)C(=O)N(CC(=O)N2CCc3ccccc32)C1=O
.,2,1.1,.,.,9,i,0.5,.,CCCNC(=O)N[C@H]1CC[C@@H](CCn2cc(C3CC3)nn2)O[C@@H]1CO
-0.2,-1,2.3,0,0.68,4,i,-3.5,.,O=C(NCC1CCCO1)c1ccccc1-c1nc(-c2ccccc2F)no1 (centres undefined)
5.1,17,1.9,-17,.,9,i,-7.3,.,COc1ccc(/C=N/NC(=O)CCn2nc(C)cc2C)cc1
-1.1,-45,-17,.,.,-75,i,1.1,.,CNc1nc(NCC2CCCCC2)c2sccc2n1
0.6,24,0.6,.,0.66,15,i,0.5,8%,CCOC(=O)Cn1c(=O)cc(C)c2ccccc21
-1.7,13,-1.9,3,0.62,12,i,1.7,.,CC(=O)Nc1ccc(C(=O)OCC(=O)Nc2c(C)n(C)n(-c3ccccc3)c2=O)cc1
2.9,.,.,2,0.76,.,.,.,2%,Cc1ccc(S(=O)(=O)/N=C(/Nc2ccccn2)c2ccc(Cl)cc2)cc1
.,1,-1.7,.,.,-5,i,0.4,.,CN(C)Cc1cn(CC[C@H]2CC[C@@H](NC(=O)Nc3ccc4c(c3)OCO4)[C@@H](CO)O2)nn1
.,3,0.3,.,.,9,i,-5.3,.,C[C@@H]1CN([C@H](C)CO)C(=O)c2cc(C3=CCCC3)cnc2O[C@H]1CN(C)C(=O)c1ccncc1
.,0,-2.9,.,.,5,i,-1.4,.,CC(C)NC(=O)N(C)C[C@H]1Oc2ncc(-c3ccc(C(=O)N(C)C)cc3)cc2C(=O)N([C@@H](C)CO)C[C@@H]1C
0.9,.,.,-4,0.74,.,.,.,17%,CCC(C)NC(=O)c1cnn2c1NC(c1cccs1)CC2C(F)(F)F (centres undefined)
.,1,0.7,.,.,6,i,-18,.,C[C@H](CO)N1C[C@H](C)[C@H](CN(C)Cc2ccccc2C(=O)O)OCc2cnnn2CCCC1=O
-1.6,16,-1.0,-18,0.69,2,i,-0.4,-1%,Cc1ccc(NC(=O)CSc2nnc(N)s2)cc1S(=O)(=O)N1CCOCC1
0.2,-7,2.3,-3,0.67,-10,i,-1.7,-4%,CCN(CC(=O)Nc1ccc(OC)cc1)CC(=O)Nc1cccc(C#N)c1
.,-7,4.4,.,.,-22,i,0.4,.,O=C(C[C@H]1CC[C@@H]2[C@H](COC[C@H](O)CN2C(=O)c2cc(Cl)cc(Cl)c2)O1)N1CCc2ccccc2C1
.,-1,0.4,.,.,2,i,-2.2,.,COC(=O)C[C@@H]1C[C@@H]2c3cc(NC(=O)NC4CCCC4)ccc3O[C@@H]2[C@H](CO)O1
2.4,10,-1.7,1,0.65,-7,i,-1.3,-3%,NC(=O)NCc1ccccc1Cl
.,1,1.2,.,.,-3,i,-2.2,.,C[C@@H]1CN([C@@H](C)CO)C(=O)CCCn2cc(nn2)CO[C@@H]1CN(C)C(=O)Nc1ccc2c(c1)OCO2
-0.9,.,.,-26,0.72,.,.,.,-7%,CC1CCN(CCCNC(=O)c2ccc3c(=O)n(CCc4ccccc4)c(=O)[nH]c3c2)CC1
.,0,3.2,.,.,1,i,0.0,.,C[C@@H]1CN([C@H](C)CO)C(=O)c2cc(NC(=O)C3CCCCC3)ccc2O[C@@H](C)CCCCO[C@@H]1CN(C)C(=O)Nc1cccc2ccccc12
.,-1,1.9,.,.,-12,i,3.4,.,C[C@@H]1CN([C@H](C)CO)C(=O)Cc2cc(NC(=O)Nc3ccccc3)ccc2O[C@@H]1CN(C)Cc1ccncc1
-0.1,-3,-0.4,2,0.7,-6,i,2.5,-1%,O=C(NCCc1c[nH]c2ccccc12)c1cncc(Br)c1
11,-1,1.8,-2,0.71,6,i,-0.4,.,COCC(=O)N1CCC(Oc2ccc(C(=O)N3CCSCC3)cc2)CC1
.,-8,7.5,.,.,-24,i,6.2,.,COc1ccccc1NC(=O)N[C@H]1C=C[C@@H](CC(=O)N2CCC(Cc3ccccc3)CC2)O[C@H]1CO
.,-1,-2.5,.,.,3,i,6.2,.,C[C@H]1CCCCO[C@H](CN(C)C(=O)Nc2ccc3c(c2)OCO3)[C@@H](C)CN([C@@H](C)CO)C(=O)c2cc(NC(=O)Nc3ccccc3)ccc2O1
0.1,.,.,?,0.71,.,.,.,.,Cc1cc(SCC(=O)NN=C2CCN(C(C)C)CC2)c(C)cc1Br
-1.2,.,.,-18,0.7,.,.,.,?,Cc1cccc(C)c1NC(=O)N1CCN(c2nc3ccccc3s2)CC1
16,-4,-1.3,-4,0.72,-2,i,3.3,.,O=C(COc1ccc2c(-c3ccccc3)cc(=O)oc2c1)Nc1ccc(CCO)cc1
-0.1,-8,-8.0,-4,.,-4,i,-3.5,9%,CCOC(=O)c1c(NC(=O)C(=O)N/N=C(\C)c2ccc(OC)cc2)sc2c1CCCCC2
2.4,6,-19,1,0.67,5,i,-0.3,0%,O=C(Cc1ccc(F)cc1)NCCc1cnc[nH]1
-2.4,.,.,-25,0.66,.,.,.,7%,Fc1ccccc1N1CC(c2ccccc2)C(c2cccs2)=N1 (centres undefined)
3.0,-43*,-6.8*,40,.,-24*,i,16,-31%,CCOC(=O)c1c(CSC(=N)N)n(-c2ccccc2)c2cc(Br)c(OC(C)=O)cc12
0.1,0,-3.5,5,.,-1,i,6.4,-8%,O=C(O)COc1ccccc1/C=N/Nc1ccc(S(=O)(=O)N2CCOCC2)cc1[N+](=O)[O-]
.,-3,-0.9,.,.,-2,i,-2.4,.,C[C@H]1CN([C@@H](C)CO)C(=O)c2c(c3ccccc3n2C)-c2ccccc2CO[C@H]1CN(C)S(=O)(=O)c1cn(C)cn1
4.5,6,1.9,-1,0.67,10,i,-11,.,CC1(C)Cc2c(sc(NC(=O)C(=O)NCC3CCCO3)c2C(=O)O)CO1 (centres undefined)
0.6,.,.,-1,0.69,.,.,.,.,O=C1NC(NS(=O)(=O)c2ccc(Cl)cc2)(C(F)(F)F)C(=O)N1Cc1cccnc1 (centres undefined)
2.5,-21,-6.5,-2,0.72,-17,i,-1.3,.,O=C(c1cc(COc2cccc(C(F)(F)F)c2)on1)N1CCSCC1
27,.,.,-15,0.77,.,.,.,29%,O/C(=C\c1nc2ccccc2nc1/C=C(\O)c1ccccc1)c1ccccc1
.,-2,-0.8,.,.,-8,i,-2.7,.,CC(C)NC(=O)N(C)C[C@@H]1Oc2ncc(-c3ccccc3)cc2C(=O)N([C@H](C)CO)C[C@@H]1C
-0.1,.,.,-13,0.73,.,.,.,-66%,CC(C)NC(=O)Cn1cc(C#N)c2cc(Br)ccc21
0.5,-23,1.5,.,.,-19,i,8.6,-2%,CN1CCN(c2ccc3c(c2)C2CC3CCN2C(=O)OCc2ccccc2)CC1 (centres undefined)
0.4,-6,-2.1,.,0.68,-13,i,-0.5,11%,CCn1nc(C)c(CN2CCCC(C(=O)c3cccc(OC(C)C)c3)C2)c1C (centres undefined)
-1.5,12,-12,.,0.68,7,i,-1.7,-9%,O=C(c1ccc(Br)o1)N1CCN(CCc2ccncc2)CC1
-1.8,.,.,-5,0.69,.,.,.,1%,O=c1c2cnn(-c3ccccc3)c2ncn1Cc1ccccn1
1.0,7,-2.9,-24,0.62,12,i,-1.0,-9%,COc1ccccc1NC(=S)NCc1ccc(F)cc1

Record cards (already shown):
Results for CC(C)NC(=O)N(C)C[C@@H]1Oc2ncc(-c3ccccc3)cc2C(=O)N([C@H](C)CO)C[C@@H]1C → HNF4A DNA FP = .; rRNA inh HTS = -2; rRNA inh HTS RFP = -0.8; ALR H2O2 inh = .; E coli growth = .; rRNA inh HTS OD600 = -8; FGF22 binding = i; MLL AF4-AF9 inh = -2.7; Vif TR-FRET = .
Results for CN1CCN(c2ccc3c(c2)C2CC3CCN2C(=O)OCc2ccccc2)CC1 (centres undefined) → HNF4A DNA FP = 0.5; rRNA inh HTS = -23; rRNA inh HTS RFP = 1.5; ALR H2O2 inh = .; E coli growth = .; rRNA inh HTS OD600 = -19; FGF22 binding = i; MLL AF4-AF9 inh = 8.6; Vif TR-FRET = -2%
Results for O=c1c2cnn(-c3ccccc3)c2ncn1Cc1ccccn1 → HNF4A DNA FP = -1.8; rRNA inh HTS = .; rRNA inh HTS RFP = .; ALR H2O2 inh = -5; E coli growth = 0.69; rRNA inh HTS OD600 = .; FGF22 binding = .; MLL AF4-AF9 inh = .; Vif TR-FRET = 1%

Later entries.
HNF4A DNA FP,rRNA inh HTS,rRNA inh HTS RFP,ALR H2O2 inh,E coli growth,rRNA inh HTS OD600,FGF22 binding,MLL AF4-AF9 inh,Vif TR-FRET,SMILES
-2.0,.,.,3,0.68,.,.,.,.,CCN(CC)S(=O)(=O)c1ccc(C(=O)NNC(=O)c2cccs2)cc1
2.2,.,.,-6,0.67,.,.,.,-1%,COc1cccc(-n2c(SCC(N)=O)nc3c([nH]c4ccccc43)c2=O)c1
-0.1,3,0.1,3,0.69,8,.,2.6,-3%,CN(CC(=O)Nc1ccccc1Cl)C(=O)C1CCN(S(=O)(=O)c2ccc3c(c2)OCCO3)CC1
0.9,-5,-5.2,-6,0.66,-2,i,0.1,1%,Brc1ccc(-c2nnc(Cc3ccccc3)o2)cc1
.,1,-0.8,.,.,12,i,-0.6,.,COc1ccccc1S(=O)(=O)N[C@H]1CC[C@H](CC(=O)N2CCN(C)CC2)O[C@H]1CO
.,-3,-2.0,.,.,3,i,-5.0,.,C[C@H](CO)N1C[C@H](C)[C@H](CN(C)C(=O)Nc2ccc3c(c2)OCO3)Oc2ccc(NC(=O)C3CC3)cc2C1=O
-0.5,6,-0.7,.,0.7,-4,i,-0.6,9%,COc1ccc(/C=C/C(=O)c2c(O)ccc3c(C)cc(=O)oc23)cc1

Pulled by structure from the entries so far:
HNF4A DNA FP,rRNA inh HTS,rRNA inh HTS RFP,ALR H2O2 inh,E coli growth,rRNA inh HTS OD600,FGF22 binding,MLL AF4-AF9 inh,Vif TR-FRET,SMILES
0.9,-5,-5.2,-6,0.66,-2,i,0.1,1%,Brc1ccc(-c2nnc(Cc3ccccc3)o2)cc1
.,-3,-2.0,.,.,3,i,-5.0,.,C[C@H](CO)N1C[C@H](C)[C@H](CN(C)C(=O)Nc2ccc3c(c2)OCO3)Oc2ccc(NC(=O)C3CC3)cc2C1=O

This is a subset; the hit share may differ from the screen's.
